Mtb hypoxia inh: PubChem AID 1159583 | M. tuberculosis hypoxia-regulated fluorescent reporter, fluorescence | fluorescence inhibition, % (concentration not given with the values) | actives 0.1% (n = 300,000);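 active = 35 to 45% if threefold the growth effect, above 45% if 1.5-fold the growth effect; inactive = the rest, general growth blockers included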;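 also: wells of about 50 µL received 100 nL stock; 0% = vehicle wells and 100% = reference inhibitor wells; whole bacteria with a GFP reporter of the hypoxia response; strong numbers were not always called active; many hits fall short of the cut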
BJeLR viability: MLPCN primary cell-based screen for lethality selective to Ras in HRASV12 cells; BJeLR (HRASV12) viability, CellTiter-Glo ATP luminescence, 48 h; reference of the scale not given here; inhibition, % (no concentration beside the values); actives 0.17% (n = 300,000);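 active = replicate mean above 50%; inconclusive = above 50% but judged a plate artefact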;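 also: 50 nL library stock added to about 25 µL; numbers are from one replicate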
PrP 5UTR inh: inhibition of PrP 5' UTR reporter expression; AID 488862, 2010; cell-based PrP 5' UTR mRNA reporter, plate reader; inhibition, % (concentration not given with the values); actives 0.35% (n = 340,000);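 active = every replicate at 50% or more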;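 also: 0 = median of the neutral control wells; tested in H4 reporter cells; numbers are from one replicate; inactives centre near -14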
RN4220 kill: growth inhibition of S. aureus RN4220, primary screen, OD600. 16 h. inhibition, % (test concentration not listed). actives 0.33% (n = 330,000). AID 1259311, 2017;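 active = z-score of -3 or lower and OD600 up to 0.18 on both plates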;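 also: plate controls were untreated cells for no effect and reference antibiotic for full effect; stock transfer was 100 nL into about 80 µL; one replicate is shown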
ugtP null kill: growth inhibition of ugtP-null S. aureus, primary screen, RN4220 ugtP deletion, OD600; 16 h; some inactives read as strong as hits; growth inhibition, % (concentration not given with the values); actives 0.54% (n = 330,000); AID 1259309, 2017;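 active = z-score under -3 and OD600 up to 0.15 on both plates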;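 also: plate controls were untreated wells for no effect and antibiotic for full effect; wells of about 80 µL received 100 nL stock; the first replicate is given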
Autofluor counter: compound fluorescence in toxin protease inhibitor counterscreen. AID 624483. actives 3.1% (n = 360,000). compound autofluorescence counterscreen, microsphere flow cytometry; active compounds read high. fluorescence intensity (concentration not given with the values);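 active = at least 3 SD above the mean of all compounds, about 16000 in these data; inconclusive = too few beads counted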;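 also: 100 nL of 1 mM stock went into each well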
Mtb hypoxia inh growth: also measured in Mtb hypoxia inh; calls as there; growth inhibition, %; measured here: M. tuberculosis growth (absorbance);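 0% = vehicle and 100% = reference antibiotic; read after six days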
* hit, by the source's call; ? = inconclusive; . = not tested or not shown.

Values run as follows: Mtb hypoxia inh	Mtb hypoxia inh growth	BJeLR viability	PrP 5UTR inh	RN4220 kill	ugtP null kill	Autofluor counter
> COc1ccc(-n2c(O)c(C(C)=NCCN3CCNCC3)c(=O)[nH]c2=O)cc1
  2	5	7	-12	2.4	1	22171*
> O=C(/C=C/NNC(=O)c1ccc(Cl)cc1)c1ccccc1
  -9	6	-3	-4	-1.2	11	8237
> COc1ccc(S(=O)(=O)Nc2nccs2)cc1OC
  -8	4	0	-41	8.5	5	4137
> Cc1cc(NS(=O)(=O)c2ccc(NC(=O)/C=C/c3ccc(Br)cc3)cc2)no1
  20	-31	-20	-13	16	9	6606
> CC(=O)c1ccc(OCCCC(=O)n2nnc3ccccc32)cc1
  .	.	5	-15	5.1	4	2820
> CCn1nc(C(=O)N2CCN(Cc3nc4ccccc4s3)CC2)c2ccccc2c1=O
  7	0	.	-35	0.2	-2	5407
> CN1CCN(C(=O)CNC(=O)c2cccs2)CC1
  12	13	.	-22	4.2	-1	3563
> CCOC(=O)c1[nH]c2ccc(OCC)cc2c1CCCN1C(=O)c2ccccc2C1=O
  6	6	-5	5	1.3	-2	2325
> COc1ccc(OC)c(-c2cn(S(=O)(=O)c3ccccc3)nc2N)c1
  -3	1	4	-22	-1.8	5	10835
> NC(=O)C1(N2CCCCC2)CCN(Cc2nc3ccccc3c(=O)[nH]2)CC1
  3	4	-3	-16	1.9	2	8992
> COc1cc(-c2nnc(-c3cc(OC)c(OC)c(OC)c3)o2)cc(OC)c1OC
  .	.	-9	-18	0.7	-4	4480
> CC1Cc2ccccc2N1S(=O)(=O)c1cccc2nsnc12 (stereo unspecified)
  3	7	5	-19	9.3	-4	10119
> c1nc(N2CCCC2)c2[nH]cnc2n1
  -2	0	-4	2	2.6	8	23416*
> O=C(Cn1cnc2c(nnn2Cc2ccc(F)cc2)c1=O)NCc1ccccc1
  0	3	11	-14	0.7	-8	4441
> CN(C)c1ccc(C(=O)NCCCSc2ccccc2)cc1
  10	1	-2	-10	1.1	-2	?
> CCCC(CCC(=O)Nc1cccc([N+](=O)[O-])c1)C(=O)O (stereo unspecified)
  -1	6	12	-26	2.5	8	4731
> COc1ccc(-n2c(=O)c(NC(=O)c3ccccc3)c3n(c2=S)CCCCC3)cc1
  -7	8	2	-1	2.1	-6	4298
> CSCC[C@H](NS(=O)(=O)c1ccc(C(C)=O)cc1)c1nnc2ccccn12
  7	-8	6	-10	2.9	3	5535
> NS(=O)(=O)c1ccc(NC(=O)CSc2ncnc3ccccc23)cc1
  0	2	-2	-12	6.8	2	2367
> O=c1c(-c2ccc(Cl)cc2)coc2c(CN3CCOCC3)c(O)ccc12
  .	.	1	-4	-2.8	-4	2167
> COc1cc2ccccc2cc1C(=O)OCC(=O)NC1CCS(=O)(=O)C1 (stereo unspecified)
  -7	0	-16	-5	2.5	16	4324
> CC1C(=O)NN=C1C(=O)NN=Cc1ccc(O)cc1O (stereo unspecified)
  13	-2	.	.	1.5	6	.
> CC(C)C(=O)Nc1c(C(=O)N2CCN(c3ncccn3)CC2)oc2ccccc12
  -8	0	-1	0	2.0	6	5628
> Cc1ccc(N/C=C/C(=O)c2ccccc2)cc1Br
  -2	-4	-3	-57	1.6	6	3823
> COc1ccc(OC)c(-c2csc(NC(=O)c3ccc(F)cc3)n2)c1
  6	2	-6	-28	7.0	-22	.
> CC1N=C(c2ccccc2Cl)c2cc(Br)ccc2NC1=O (stereo unspecified)
  8	1	5	-9	3.2	-3	4207
> CC(=O)c1sc(=S)n(Cc2ccccc2)c1C
  6	5	-2	-22	3.2	5	3711
> CCNC(=O)C1(c2ccccc2)CCCC1
  7	4	2	-24	6.3	13	3292
> CCN(CC)S(=O)(=O)c1ccc(O)c(NC(=O)c2cc(-c3cc(OC)c(OC)c(OC)c3)nc3ccccc23)c1
  4	7	-5	-20	4.5	8	3416
> CCOC(=O)N1C2C=C(C)[C@@H]2[C@@H]2CC(=O)N21 (stereo partly specified)
  4	2	-1	-7	4.3	2	7247

Values run as follows: Mtb hypoxia inh	Mtb hypoxia inh growth	BJeLR viability	PrP 5UTR inh	RN4220 kill	ugtP null kill	Autofluor counter
> O=C(Nc1ccc(Br)cc1)N1CCCCC1
  4	18	16	-26	3.2	2	3734
> Cc1ccc(S(=O)(=O)NCCSCc2ccccc2)cc1
  .	.	-2	11	2.4	-7	2262
> O=C(Nc1ccc(Cc2ccncc2)cc1)c1cc(F)c(F)cc1Cl
  4	4	18	-27	1.7	7	4210
> O=C(CSc1nnc(-c2ccccc2)o1)N1CCN(c2ccccc2)CC1
  5	8	-3	-36	7.6	9	7589
> CCOC(=O)CN1C(=O)NC2NC(=O)NC21 (stereo unspecified)
  12	9	6	-18	-11	-4	3099
> O=C(COC(=O)c1cccc(S(=O)(=O)Nc2ccc(F)cc2)c1)NCCN1C(=O)CSC1=O
  13	7	-2	-15	5.9	5	6999
> COC(=O)C[C@H]1c2cc(C(F)(F)F)ccc2S(=O)(=O)N1C(C)(C)C
  .	.	4	-20	.	.	3087
> O=c1cc(C(F)(F)F)nc(SCc2cccnc2)[nH]1
  7	4	-5	-7	2.8	2	5176
> CC(=O)Nc1cccc(OC(=O)COc2ccc(Br)cc2)c1
  1	2	2	1	-0.6	1	2507
> O=C(O)/C=C/C(=O)NNc1ccc([N+](=O)[O-])cc1
  1	-4	2	-15	4.2	3	4460
> Cc1ccccc1NC(=S)N1CCCC(c2nc3ccccc3[nH]2)C1 (stereo unspecified)
  10	-3	4	-53	2.9	7	4410
> COC(=O)c1ccc(C(=O)N(C)C2CCCN(Cc3ccccc3F)C2)cc1 (stereo unspecified)
  -7	-8	-8	-9	1.3	4	3970
> COCCn1c(N)c(N(Cc2ccccc2)C(=O)COc2ccccc2F)c(=O)[nH]c1=O
  -9	-5	.	-2	2.8	4	6344
> CC1CCN(C(=O)COc2coc(CN3CCc4ccccc43)cc2=O)CC1
  6	-2	-1	-16	3.0	-1	4668
> CC(/C=C/c1ccccc1)=NNC(=O)c1cc(C)[nH]n1
  7	-9	.	.	9.7	-8	.
> Cc1onc(C(=O)N2CCOCC2)c1[N+](=O)[O-]
  15	3	10	-12	2.0	4	2364
> COc1ccc(N2CCN(C(=O)CNC(=O)Cc3ccccc3)CC2)cc1
  -2	-5	5	-13	5.4	16	4436
> Cn1cc(S(=O)(=O)N2CCN(Cc3ccccc3)CC2)c(=O)n(C)c1=O
  3	1	7	-1	7.8	10	4513
> Cc1cc(C)c(NC(=O)CN2CCC(NC(=O)NC3CCCCC3)CC2)c(C)c1
  13	2	-3	.	13	-66	.
> COc1cc(/C=N/NC(=O)COc2cc(C)cc(C)c2)ccc1OS(=O)(=O)c1ccc(C)cc1
  .	.	-4	-16	.	.	2409
> O=C1CSC(c2ccc(F)c(F)c2)N1c1ccccc1F (stereo unspecified)
  1	-11	3	-11	-4.4	10	4171
> CN1CCC(CC(C(=O)N2CCCC2)(c2ccccc2)c2ccccc2)C1 (stereo unspecified)
  -2	4	.	0	0.2	0	3717
> Cc1csc(=Nc2cccnc2)n1CC1CCCCC1
  7	12	5	-123	5.8	29	1929
> O=C(OCC(=O)N1CCN(c2ccccc2)CC1)c1cccc(Cl)c1
  -9	-6	-6	-3	-1.0	-2	23047*
> CSc1ccccc1N1CCN(C(=O)Nc2ccc3c(c2)NC(=O)CO3)CC1
  1	6	-21	-16	-2.8	-9	21233*
> O=C(NNC(=O)c1nn(-c2ccc(F)cc2)ccc1=O)c1ccccc1Cl
  8	6	0	-9	2.2	2	.
> CN1C(=O)[C@@H]2[C@@H]3C[C@@H]([C@H]4ON=C(c5ccccc5OCC#N)[C@@H]34)[C@@H]2C1=O
  4	11	-11	-15	2.3	3	5556
> CCOc1ccc(N(CC(=O)Nc2ccc(C)cc2)S(C)(=O)=O)cc1
  5	-2	-9	-47	2.2	13	3355
> Cn1c(CC(=O)Nc2ccc(Cl)c(Cl)c2)nnc1SCC(=O)NCc1ccccc1
  .	.	-6	-25	.	.	3274
> NS(=O)(=O)c1ccc(-c2ccc(/C=C3\C(=O)Nc4cc(Cl)ccc43)o2)cc1
  -1	7	-1	0	1.1	-3	4803

Single records, from the list above. Order of values: Mtb hypoxia inh, Mtb hypoxia inh growth, BJeLR viability, PrP 5UTR inh, RN4220 kill, ugtP null kill, Autofluor counter
`COC(=O)C[C@H]1c2cc(C(F)(F)F)ccc2S(=O)(=O)N1C(C)(C)C` is listed with ., ., 4, -20, ., ., 3087
`COc1cc(/C=N/NC(=O)COc2cc(C)cc(C)c2)ccc1OS(=O)(=O)c1ccc(C)cc1` is listed with ., ., -4, -16, ., ., 2409

Remaining list, next part
Values run as follows: Mtb hypoxia inh	Mtb hypoxia inh growth	BJeLR viability	PrP 5UTR inh	RN4220 kill	ugtP null kill	Autofluor counter
> Clc1ccc(-c2cc3ccccc3[nH]2)cc1
  3	4	0	-65	4.7	41	8800
> COc1ccc(CCNC(=O)c2cc(S(=O)(=O)N(C)C)ccc2N2CCCC2)cc1OC
  14	9	-5	-43	-0.7	7	5312
> O=C1NCCCC1C(=O)NCCN1C(=O)CCC1=O (stereo unspecified)
  12	9	5	-3	4.9	6	6594
> CCOc1ccccc1C(=O)N[C@H](C(=O)OCc1cc([N+](=O)[O-])cc2c1OCOC2)C(C)C
  5	2	0	-4	-0.2	1	10207
> Cc1ccc(/C=N/N2CCN(Cc3cccc4ccccc34)CC2)o1
  .	.	-3	-8	.	.	3314
> COc1ccc(Cc2nnc(NC(=O)C3CC(=O)N(c4ccc(OC)cc4)C3)s2)cc1 (stereo unspecified)
  10	1	7	-23	-4.3	0	3671
> CCN(CC)S(=O)(=O)c1ccc(N2CCOCC2)c(NC(=O)C(=O)c2c(-c3ccccc3)cc3ccccn23)c1
  17	3	-8	-20	21	-14	10885
> CN(CC(=O)Nc1ccccc1Br)C(=O)c1ccc2c(=O)n3c(nc2c1)CCC3
  11	3	.	-10	8.0	10	5327
> Cc1cc(C)cc(NC(=O)CSCc2nc3c(nnn3Cc3ccc(F)cc3)c(=O)[nH]2)c1
  5	4	7	-14	-1.3	9	16024
> O=[N+]([O-])c1ccc(NCCCO)c(C(F)(F)F)c1
  6	5	-9	-24	2.3	1	2582
> Cc1ccc(OCCCC(=O)Nc2ccc(S(N)(=O)=O)cc2)cc1
  8	-1	4	-32	7.8	7	4147
> CN1C(c2ccccc2)=NO[C@]1(C)c1ccccc1
  18	16	-5	-20	6.5	6	.
> Cc1cc(NC(=O)CCC(=O)N(CC(=O)NC2CCCC2)c2ccccc2)no1
  -1	3	-4	-11	-0.3	3	4756
> CCOC(=O)c1nn(-c2ccc(C)cc2)cc1C(=O)c1ccccc1
  2	0	7	-63	6.6	8	?

Single entries from the results shown:
`Cc1ccc(/C=N/N2CCN(Cc3cccc4ccccc34)CC2)o1` | Autofluor counter = 3314
`CN(CC(=O)Nc1ccccc1Br)C(=O)c1ccc2c(=O)n3c(nc2c1)CCC3` | Autofluor counter = 5327
`Cc1cc(C)cc(NC(=O)CSCc2nc3c(nnn3Cc3ccc(F)cc3)c(=O)[nH]2)c1` | Mtb hypoxia inh growth = 4
`CCOC(=O)c1nn(-c2ccc(C)cc2)cc1C(=O)c1ccccc1` | Mtb hypoxia inh = 2

Bioassay records (PubChem BioAssay)

Random draw from the library; overall some 4.1% were active at least once.
